# TRPML1 inh = blocks the human TRPML1 channel | TRPML1-inducible cells, Ca2+ dye fluorescence, FDSS; active compounds read low; inhibition of EC80 agonist-evoked calcium signal | hit rate 0.02% among 390,000 | activity change, negative = inhibition, % (concentration not given with the values) | Q9GZU1; in the data active means activity change below about -50%; inconclusive means about -30% to -50%; inactive means above about -30%;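 note: stimulus is agonist 54-4 at its EC80 concentration; % is set by controls: 0 for no effect and ±100 for the full control effect; the text of the record puts the active cut at -80%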
# Target sequence (Q9GZU1 whole entry, looked up): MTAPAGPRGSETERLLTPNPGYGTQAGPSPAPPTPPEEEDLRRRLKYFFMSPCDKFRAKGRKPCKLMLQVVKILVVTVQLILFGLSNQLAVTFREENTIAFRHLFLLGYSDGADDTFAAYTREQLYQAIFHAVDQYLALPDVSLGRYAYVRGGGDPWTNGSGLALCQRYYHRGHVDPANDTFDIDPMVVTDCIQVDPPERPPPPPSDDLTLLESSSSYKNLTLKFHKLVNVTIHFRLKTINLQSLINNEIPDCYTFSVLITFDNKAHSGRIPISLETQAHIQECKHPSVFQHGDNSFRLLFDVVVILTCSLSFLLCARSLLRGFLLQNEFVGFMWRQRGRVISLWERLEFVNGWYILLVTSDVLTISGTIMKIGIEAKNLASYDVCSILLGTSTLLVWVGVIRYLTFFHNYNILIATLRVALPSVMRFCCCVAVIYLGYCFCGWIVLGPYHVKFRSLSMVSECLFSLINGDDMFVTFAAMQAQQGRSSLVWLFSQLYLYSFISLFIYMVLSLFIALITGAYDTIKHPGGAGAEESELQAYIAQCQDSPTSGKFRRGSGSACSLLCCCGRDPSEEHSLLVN
#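 Calcium fluorescence in TRPML1-DL cells induced overnight with Tet: a 110 s read after compound pin addition, then a 110 s antagonist read after challenge with 54-4 at 4 uM final (EC80).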
# ClpP mod = qHTS Assay for Activators of ClpP; hit rate 1.9% among 340,000; ATP-dependent Clp protease proteolytic subunit (Bacillus subtilis (strain 168)), P80244; purified B. subtilis ClpP, FRET peptide cleavage, 20 min; Potency, µM (highest dose often 57.5 µM), for inactives: top-dose activity change, negative = active; active = well fitted falling curve with a large enough effect; inconclusive = small, poorly fitted or top-dose-only effect; inactive = no such curve, though single readings can be large or run the other way; note: potency is the fitted concentration of half-maximal effect; the source files actives as falling curves though it sought activators and does not explain the sign; nearly all actives have a fitted effect of over 65% in size; many hits overshoot -100%
# Target sequence (P80244 whole entry, looked up): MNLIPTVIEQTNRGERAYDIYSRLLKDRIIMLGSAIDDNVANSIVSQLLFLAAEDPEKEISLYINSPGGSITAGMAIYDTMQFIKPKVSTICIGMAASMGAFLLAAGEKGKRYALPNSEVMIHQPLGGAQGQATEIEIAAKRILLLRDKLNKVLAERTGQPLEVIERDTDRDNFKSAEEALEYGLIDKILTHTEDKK
#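 ClpP 10 microg/mL final, pH 8 Tris/KCl buffer with BSA, glycerol, Tween-20; compound pinned in; FRET-FV substrate; RT 20 min; Ex320/Em430; ΔFRET vs ADEP 5.8 microM, DMSO, no enzyme.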
# TRPML1 agonist = human mucolipin-1 channel agonism | Q9GZU1 | TRPML1-expressing cells, Ca2+ dye fluorescence, FDSS; host cell line not named in the record; reference of the full effect not given here | activation, % (no concentration beside the values) | hit rate 0.12% among 410,000 | AID 624414; in the data active = activation above about 50%; inconclusive = about 30% to 50%; inactive = below about 30%; note: 0% is about no effect; the text of the record puts the active cut at 80%
#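 Calcium fluorescence on an FDSS kinetic reader gave the read-out. Tet-induced TRPML1-DL cells were plated overnight, dye-loaded (Ca8 with quencher, 45-90 min, room temperature, dark), then read 110 s after compound addition, and again 110 s after 4uM final 54-4 (EC80).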
# gsp agonist = gsp mutant agonism; gsp mutant cells, cAMP HTRF, 30 min; control for the full effect not named in the record; Potency, µM (top dose mostly 76.9 µM), without a hit: at the highest dose activation (cAMP increase), most hits filed as activators; hit rate 0.13% among 340,000; AID 624287; active = well fitted activation curve with a large enough effect; inconclusive = small, poorly fitted or top-dose-only effect, or another doubt; inactive = no such curve, though single readings can be large or run the other way; cell line not stated here;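 note: phosphodiesterase inhibitor Ro 20-1724 added with compounds to block cAMP breakdown; potency is the fitted concentration of half-maximal effect; nearly all actives have a fitted effect of over 60% in size; about a fifth of the inactives were tested at one dose only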
#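 Cells in DMEM/10% FBS with G418 were pretreated with compounds in DMSO plus […] (300 uM stock) for 30 min at 37C. cAMP was measured by HTRF (cAMP-d2 plus anti-cAMP antibody-K) after 30 min at room temperature.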
# Menin-MLL FL inh = displaces fluorescein MLL peptide from human menin; Fluorescence polarization, fluorescein-MLL peptide displacement from menin; FP activity change, % at 61.4 µM; AID 1766; 290,000 tested, under 10 active; inconclusive = falling polarisation curve, or a change in total fluorescence; inactive = total fluorescence flat and polarisation flat or rising; no compound was filed as active; the % refers to the polarisation; negative = inhibition;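 note: % of control where 0% means no effect; inhibitors lower the polarisation; unlabelled MLL peptide was the positive control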
# gsp antag = antagonists of gsp mutant (McCune-Albright syndrome) | gsp-mutant cells, cAMP HTRF, 30 min; control for the full effect not named in the record | Potency, µM (series often up to 76.9 µM), for inactives: top-dose activity change, negative = inhibition, actives largely listed as inhibitors | hit rate 0.4% among 340,000 | AID 624288; active = falling curve of any shape with a large fitted effect; inconclusive = falling curve, mostly with a smaller effect; inactive = flat or rising curve; cell line not stated here;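 note: intracellular cAMP measured with PDE inhibitor Ro 20-1724 present during compound exposure; potency is the fitted concentration of half-maximal effect; % is set by controls: 0 for no effect and ±100 for the full control effect; nearly all actives have a fitted effect of over 65% in size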
#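 Cells in G418 medium, seeded 16-24 h, 37C; buffer exchange to DPBS + 1 mM CaCl2, 0.5 mM MgCl2, 0.05% BSA; cpds in DMSO + […] (300 uM stock), 30 min 37C; HTRF cAMP detection.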
# * = called active by the depositor; ? = inconclusive; · = not tested or not shown; [ ] = another dose, or the depositor's remark. Not a hit list (roughly 2.1% active in at least one column).
SMILES,TRPML1 inh,ClpP mod,TRPML1 agonist,gsp agonist,Menin-MLL FL inh,gsp antag
Cc1cc(C)c(S(=O)(=O)N(C)c2ccccc2)c(C)c1,?,0.1%,2.9,-10.9%,-1.8,-21.5%
N/C(=N\OC(=O)c1ccc(Cl)c([N+](=O)[O-])c1)c1ccccc1,17.3,0.7%,-0.6,-2.1%,-13.9,-6.6%
CCN(CC)S(=O)(=O)c1ccc2oc(C(=O)Nc3ccc(Br)cc3F)c(C)c2c1,39.6,0.6%,-0.2,·,·,·
CNc1ccc(/C=C(\C#N)C(=O)Nc2ccccn2)cc1[N+](=O)[O-],-10.5,·,-0.1,56.1%[15.4 µM],?,6.2%
CC(C)c1ccc(NC(=O)C2CCN(C(=O)[C@@H]3Cc4ccccc4CN3)CC2)cc1,-6.7,-3.1%,0.4,1.9%,13.2,2.8%
CC(C)(C)OC(=O)NN1CC(=O)N2Cc3[nH]c4ccccc4c3C[C@H]2C1=O,·,-2.1%,·,9.1%,-14.3,7.1%
Cc1ccc(/C=N/NC(=O)NN(C)c2ncc(C(F)(F)F)cc2Cl)cc1,32.8,-4.2%,1.5,20.0%[15.4 µM],-2.0,-5.4%
CCSc1nnc(NC(=O)C(C)Sc2nc3ccccc3[nH]2)s1 (stereo unspecified),-3.9,-4.9%,1.8,-28.8%,5.4,-14.8%
CCN(CC)CCNC(Cc1ccccc1)c1cccc(OC)c1 (stereo unspecified),-4.0,-1.5%,2.3,-2.3%,·,-0.4%
O=C(c1cccc(S(=O)(=O)NCCOc2ccccc2)c1)N1CCN(c2ncccn2)CC1,51.6,-19.2%,1.4,-3.9%,4.0,?
Cc1noc(C)c1CSc1ncnc2sc(C)c(C)c12,-4.4,-2.5%,-1.6,?,-2.5,-7.6%
O=C(CN1C(=O)c2cccc3cccc1c23)N1CCN(c2ccccc2)CC1,31.8,-4.7%,0.9,0.0%,2.0,-4.3%
CCN(CC)c1ccc(C(=O)NCc2ccc3c(c2)CCN3C(=O)c2cccc(C)c2)cc1,6.6,-13.2%,-0.1,·,·,·
CC(C)C(=O)Nc1nnc(Sc2ccc(N(C)C)cc2)s1,19.0,0.6%,-0.8,-6.0%,4.5,5.9%
Cn1ccc2cc(NC(=O)Nc3cccnc3)ccc21,19.3,-3.5%,-1.1,·,?,-10.2%
Cc1ccc(CNC(=O)c2cc(C3CC3)nc3c2c(C)nn3-c2cccc(Cl)c2C)cc1,8.0,?,-0.3,·,·,·
Cc1ccccc1Oc1nc2ccccn2c(=O)c1/C=C(\C#N)c1nc2ccccc2[nH]1,-9.2,-1.8%,5.1,·,·,·
CC(=O)c1c(C)[nH]c(C(=O)OC2CCCCC2=O)c1C (stereo unspecified),-6.1,0.3%,-1.3,-14.9%,0.2,-16.5%
Cc1cccc(NC(=O)C(C)Sc2nc3ccccc3c(=O)n2CCCN2CCOCC2)c1 (stereo unspecified),-8.9,1.1%,0.5,-2.4%,·,-23.8%
COc1cc2c(cc1NC(=O)CN1C(=O)NC3(CCc4ccccc43)C1=O)oc1ccccc12 (stereo unspecified),2.9,?,0.6,-4.2%,1.8,-13.5%
CCOC(=O)COc1nc(-c2ccco2)cc(-c2ccco2)c1C#N,21.9,·,3.4,3.5%[15.4 µM],18.1,-22.5%
Cc1ccc(O)c(C2=Nc3ccccc3N=C(c3cccc([N+](=O)[O-])c3)C2)c1,22.9,-2.0%,-0.3,0.3%,5.1,-2.6%
COC(=O)c1c(NC(=O)C(Cl)Cl)sc2c1C(C(=O)OC)CC2 (stereo unspecified),46.9,-5.4%,0.3,?,-0.5,-14.5%
COc1ccc([C@H]2CC(=O)C=C(c3ccc(Cl)c(C(F)(F)F)c3)C2)cc1OC,-2.6,-3.5%,2.1,·,·,-11.9%
COCCCn1c(C(=O)N2CCOCC2)cc2c(=O)n3cccc(C)c3nc21,11.5,28.2µM*,-0.5,15.1%,·,17.6%
[O-]/C(=C(\C(=S)Nc1ccccc1F)[n+]1ccccc1)c1ccc(OC(F)F)cc1,·,-1.0%,·,?,2.2,-8.0%
COCCCNC(=O)Cn1c(=O)n(-c2ccc(Cl)cc2)c(=O)c2c3c(sc21)CCCCC3,-9.5,-0.2%,-0.2,·,·,·
c1ccc(Oc2cnc3ccccc3n2)cc1,6.8,-2.4%,-1.4,24.4%,-2.9,-22.4%
CCOC(=O)c1sc(N2C(=O)C(O)=C(C(=O)c3ccc(C)o3)C2c2cccc([N+](=O)[O-])c2)nc1C (stereo unspecified),-2.9,0.6%,-0.1,?,-1.7,?
Cc1cc(=O)oc2c(CN3CCN(CCO)CC3)c(O)ccc12,-1.7,-19.8%,0.0,-67.9%[15.4 µM],0.3,-15.8%
CCc1ccc(NC(=O)C(=O)NCCc2csc(-c3ccc(C(F)(F)F)cc3)n2)cc1,-27.5,-1.5%,1.6,·,·,·
COC(=O)CSc1nc2sc3c(c2c(=O)[nH]1)CCC3,3.7,-8.2%,-0.5,-2.6%,3.9,4.2%
Cc1cccc(C)c1OCC(=O)Nc1c(C(=O)c2ccc(Br)cc2)oc2ccccc12,-4.7,0.4%,-0.2,·,·,·
O=C1c2oc3ccc(Cl)cc3c(=O)c2C(c2ccccn2)N1CCCN1CCOCC1 (stereo unspecified),-8.0,-11.3%,-0.3,8.5%,6.6,3.6%
COC(=O)c1cccc(NC(=S)Nc2ccc(Cl)c(Cl)c2)c1,34.5,·,0.0,-7.4%,3.9,-11.2%
Cc1nnc(SCC(=O)c2ccccc2F)n1Cc1ccccc1,-0.9,0.0%,-0.4,-15.7%,?,5.7%
Cc1cccc(NS(=O)(=O)c2cnc(Cl)c(Br)c2)n1,-6.2,0.2%,-0.4,0.0%,8.0,0.6%
Nc1ccccc1Nc1ccncc1[N+](=O)[O-],7.0,0.4%,-0.3,?,-0.6,0.9%
Cc1ccc(C)c(N2CCN(C(=O)c3cc(S(=O)(=O)N4CCCCC4)cn3C)CC2)c1,-0.5,-1.6%,0.6,·,·,·
O=C(NCCc1ccccc1)C1CCCN1S(=O)(=O)c1ccc(F)cc1 (stereo unspecified),-2.9,0.3%,-0.5,-13.2%,·,0.3%
C/C(=N\NC(=O)c1ccccc1NC(=O)c1ccc(Cl)cc1)c1ccncc1,-4.7,·,-0.5,-0.7%[15.4 µM],-2.0,?
O=C(CN1CCN(c2ccc(F)cc2)CC1)Nc1nnc(-c2ccccc2)s1,-9.7,-8.8%,-0.1,2.4%,0.7,-1.0%
CN1CCN(c2ccccc2NC(=O)c2cccs2)CC1,13.5,-0.8%,-0.6,20.2%,·,8.8%
CC(C)OP(=O)(OC(C)C)C(O)c1ccc(N(C)C)cc1 (stereo unspecified),4.2,0.9%,0.2,0.9%[15.4 µM],1.0,-29.5%
CCc1ccccc1NC(=O)C1CCN(C(=O)N2CC(C)Oc3ccc(Cl)cc32)CC1 (stereo unspecified),-18.2,2.2%,-0.5,·,·,·
COc1cccc(C(=O)Nc2cc3c(cc2Cl)OCCCO3)c1,-8.1,0.3%,2.0,12.3%,2.5,-11.5%
CCOc1ccc(S(=O)(=O)Nc2cccc(C(=O)N(C)Cc3cccc(OC)c3OC)c2)cc1,-19.8,-2.3%,0.2,18.7%,-0.5,-9.5%
COCCNC(=O)CN(C(=O)CCC(=O)Nc1nccs1)c1ccccc1OC,10.4,-0.7%,-0.4,-20.8%,-5.7,0.8%
OC(c1cccs1)c1nccc2ccccc12 (stereo unspecified),11.2,-7.0%,2.1,9.8%,-0.2,-4.9%
Cc1cc(C(=O)NNC(=O)CN2C(=O)NC(C)(c3ccccc3)C2=O)c(C)o1 (stereo unspecified),-14.0,-2.7%,-0.2,-6.3%[15.4 µM],·,2.4%

# More compounds follow.
SMILES,TRPML1 inh,ClpP mod,TRPML1 agonist,gsp agonist,Menin-MLL FL inh,gsp antag
O=C(CCCn1c(=S)[nH]c2ccccc2c1=O)NCc1ccco1,-13.2,-1.8%,1.4,-19.4%,3.2,6.9%
Cc1ccc(C(=O)NCC(c2cccs2)S(=O)(=O)c2ccccc2)cc1C (stereo unspecified),2.3,-2.8%,0.7,·,·,·
COc1ccc(CNC(=O)c2ccc(Cn3cc(Br)cn3)o2)cc1,?,-5.8%,0.1,?,·,0.0%
COc1ccccc1-c1nnc(NC(=O)C(C)Sc2nncn2C)s1 (stereo unspecified),-5.4,-5.5%,0.4,?,1.5,-16.1%
O=C(CSc1ccc(F)cc1)NC(=O)NCc1ccccc1,-5.6,·,-0.4,12.6%[15.4 µM],0.3,3.7%
CCN(CC)C(=O)C1CC(=O)N(c2ccc(OC)cc2)C1c1ccc(OC)cc1 (stereo unspecified),13.4,-1.1%,0.5,-2.8%,2.0,-15.7%
O=C(COc1ccc2c3c(c(=O)oc2c1)CCC3)NCCCN1CCCC1=O,34.9,4.5%,0.1,?,·,-3.1%
O=C(COc1ccc(S(=O)(=O)N2CCCC2)cc1)NCC1CCCO1 (stereo unspecified),-3.1,·,1.3,1.7%[15.4 µM],0.6,-0.1%
O=C(CCC(=O)Nc1cccc2ccccc12)N/N=C/c1ccco1,-8.0,0.8%,-0.4,-0.3%[15.4 µM],3.0,19.4%
COc1ccc(OCCCC(=O)OCC(=O)NNC(=O)c2ccc([N+](=O)[O-])cc2)cc1,19.6,-1.6%,0.2,10.5%,·,4.8%
Cc1ccc(S(=O)(=O)CC(=O)NCc2ccccc2)cc1,-6.4,1.3%,-0.4,?,·,10.0%
C[C@@H](C(=O)N1CCNCC1)n1cc(CCC(=O)O)nn1,-15.3,0.9%,-0.7,3.6%,-2.2,13.2%
CCn1nnnc1-c1ccc(OC)c(S(=O)(=O)NCc2ccccc2)c1,-6.4,-3.8%,0.7,2.6%,-1.5,0.5%
O=C(/C=C/c1ccc2c(c1)OCO2)NCc1ccco1,-14.0,28.2µM*,1.5,-2.3%,7.0,7.8%
Cc1ccc(C(=O)OCC(=O)NCc2ccc3c(c2)OCO3)cc1S(=O)(=O)N1CCOCC1,2.4,-3.9%,-0.9,?,·,-12.6%
C[C@H](CO)N1C[C@H](C)[C@@H](CN(C)Cc2ccncc2)Oc2c(NC(=O)CCCCCC(=O)Nc3ccccc3N)cccc2C1=O,-9.4,-3.8%,-0.4,-136.2%[inhibitor],·,-15.0%
CCCCC(CC)C(=O)Nc1cc(=O)[nH]c2nc3ccccc3n12 (stereo unspecified),·,-2.9%,·,1.1%,-0.8,2.9%
Cc1oc2c(C)c3oc(=O)c(CCC(=O)O)c(C)c3cc2c1-c1ccccc1,-23.9,-19.2%,-0.4,-6.9%,0.3,-5.5%
Cc1ccc(NC(=O)Cn2cnc3onc(-c4ccc(F)cc4)c3c2=O)c(Cl)c1,35.8,2.0%,1.8,·,·,·
N/C(=N\OC(=O)COc1ccc(Cl)cc1)c1ccc(Cl)cc1,-5.4,·,1.9,12.9%,3.3,11.5%
CCc1ccc(NC(=O)Nc2ccccc2OCc2cc(=O)n3ccccc3n2)cc1,12.1,10.6%,-0.4,·,·,·

# Screening data as filed in PubChem.
